# Screening data (PubChem BioAssay)
# NS1 function inh: blocks influenza NS1 protein function; Potency, µM (doses to about 46.1 µM), for inactives: top-dose activity, positive = more growth; S. cerevisiae slowed by influenza A NS1, growth recovery by OD600; 0.4% of 270,000 active; also: actives are rising curves; nearly all actives have a fitted effect of over 50% in size
#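 Growth recovery, yeast-based: influenza A NS1 expressed in S. cerevisiae causes slow growth, and suppressors are detected by OD600. The parent strain without NS1 is used as positive control.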
# StopGo reporter: lowers the luciferase signal of an FMDV 2A StopGo reporter; human cells with a luciferase reporter of 2A StopGo recoding; control for the full effect not named in the record; Potency, µM (highest dose often 57.9 µM), without a hit: at the top dose signal change, negative = less light; 1.2% of 410,000 active; active = well fitted falling curve with a large enough effect; inconclusive = small, poorly fitted or top-dose-only effect; inactive = no such curve, though single readings can be large or run the other way; tested in HEK293T cells; also: % is scaled to controls: 0 for no effect and ±100 for the full control effect; nearly all actives have a fitted effect of over 45% in size; luciferase light after 4 h
# Lassa entry inh: Lassa virus entry inhibition; AID 540256; Lassa virus pseudotype entry inhibition, cell reporter; control for the full effect not named in the record; Potency, µM (top dose mostly 37.9 µM), inactives show at the top dose activity change, negative = inhibition, actives largely listed as inhibitors; 1.2% of 300,000 active; active means well fitted inhibition curve with a large enough effect; inconclusive means small, poorly fitted or top-dose-only effect, or effect the other way; inactive means flat fitted curve, though single readings scatter; tested in HEK293 cells; also: % is scaled to controls: 0 for no effect and ±100 for the full control effect; nearly all actives have a fitted effect of over 50% in size; luciferase read-out
# RE007 growth inh: less growth of the S. pombe RE007 Vpr strain. Potency, µM (top dose mostly 92.2 µM), for the others: at the top dose activity change, negative = less growth. AID 651644. S. pombe RE007 Vpr strain, BacTiter-Glo ATP luminescence, 24 h; control for the full effect not named in the record. 0.21% of 360,000 active; active = well fitted falling curve with a large enough effect; inconclusive = small, poorly fitted or top-dose-only effect; inactive = no such curve, though single readings can be large or run the other way;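 also: % is scaled to controls: 0 for no effect and ±100 for the full control effect; nearly all actives have a fitted effect of over 50% in size; the assay follows cell death caused by Vpr and the record does not say whether a fall means rescue or toxicity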
#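 Fission yeast strain RE007, carrying one chromosomally integrated HIV-1 vpr copy, was seeded at OD 0.01 in PMG+AL medium with 23 nL pinned compound. After 24 h at 30 °C and 99% humidity, viability was read by BacTiter-Glo luminescence.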
# Cruzain Triton: blocks cruzain activity in presence of Triton detergent. P25779. purified cruzain, Z-FR-AMC fluorescence, 0.01% Triton. Potency, µM, for inactives: max response, negative = inhibition, hits mostly inhibitors. 0.43% of 200,000 active; active = well fitted curve in the direction sought with a large enough effect; inconclusive = small, poorly fitted or top-dose-only effect, or another doubt; inactive = no such curve, though single readings can be large; an effect the other way counts as inactive or inconclusive;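 also: plate controls were neutral wells for no effect and buffer without enzyme for full effect; nearly all actives have a fitted effect of over 40% in size; top concentration of the series not given in the record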
# Target sequence (P25779 123-467 limits assumed): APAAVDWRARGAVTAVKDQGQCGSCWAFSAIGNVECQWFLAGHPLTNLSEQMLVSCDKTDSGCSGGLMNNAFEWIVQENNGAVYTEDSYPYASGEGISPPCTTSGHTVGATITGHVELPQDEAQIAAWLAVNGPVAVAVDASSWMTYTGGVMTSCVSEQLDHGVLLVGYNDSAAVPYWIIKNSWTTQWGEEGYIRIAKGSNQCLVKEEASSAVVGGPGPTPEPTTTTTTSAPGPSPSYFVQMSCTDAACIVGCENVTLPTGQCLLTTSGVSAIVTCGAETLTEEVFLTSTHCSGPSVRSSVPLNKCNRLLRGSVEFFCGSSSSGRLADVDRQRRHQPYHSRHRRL
#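 In this qHTS format, compounds are incubated with 1.5 nM cruzain for 15 min at room temperature before 2 uM Z-FR-AMC is added. Release of AMC is followed at 360/450 nm, and progress is taken as the 60 s fluorescence difference.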
# SARS PLP yeast: inhibitors of SARS-CoV papain-like protease in yeast; 0.19% of 330,000 active; Potency, µM (series often up to 32.9 µM), without a hit: at the top dose activity, positive = growth rescue; S. cerevisiae expressing SARS-CoV PLpro, growth rescue; control for the full effect not named in the record; AID 485353; also: 0% is about no effect; nearly all actives have a fitted effect of over 55% in size; growth read by luminescence after 48 h
# Cruzain noTriton: blocks cruzain activity in detergent-free assay; purified cruzain, Z-FR-AMC fluorescence, no detergent; 2.3% of 200,000 active; Potency, µM, inactives show max response, negative = inhibition, usual class: inhibitors; active = well fitted curve in the direction sought with a large enough effect; inconclusive = small, poorly fitted or top-dose-only effect, or another doubt; inactive = no such curve, though single readings can be large; an effect the other way counts as inactive or inconclusive;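 also: plate controls were enzyme without inhibitor for no effect and buffer without enzyme for full effect; nearly all actives have a fitted effect of over 40% in size; top concentration of the series not given in the record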
#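 Detergent-free condition (0.00005% Triton X-100) in acetate buffer pH 5.5 with DTT. 1.5 nM enzyme and compound were pre-mixed 15 min, then 2 uM Z-FR-AMC substrate added; reaction progress from fluorescence change between first and third reads (60 s).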
# Marburg entry inh: inhibitors of Marburg virus binding or cell entry. Potency, µM (doses to about 37.8 µM), without a hit: top-dose activity change, negative = inhibition, usual class: inhibitors. 1.8% of 300,000 active. Marburg virus pseudotyped entry inhibition, cell reporter; control for the full effect not named in the record; about a third of the inactives were read at about 46 µM; active = well fitted inhibition curve with a large enough effect; inconclusive = small, poorly fitted or top-dose-only effect, or effect the other way; inactive = flat fitted curve, though single readings scatter; tested in HEK293 cells; about a fifth of its hits are not listed in these tables; also: % is scaled to controls: 0 for no effect and ±100 for the full control effect; luciferase read-out
# An asterisk follows results filed as active; ? = inconclusive; . = not tested or not shown; & = joins results of further samples; [ ] = dose if it differs, or a comment. Unless noted, calls follow the shape of the dose curve; as a rule, active means well fitted rising curve with a large enough effect; inconclusive means small, poorly fitted or top-dose-only effect; inactive means no such curve, though single readings can be large or run the other way. Potency is read from the fitted curve at half-maximal effect. The order is random; 4.7% or so of the library scored in one or more.
SMILES	RE007 growth inh	Marburg entry inh	Lassa entry inh	NS1 function inh	Cruzain Triton	StopGo reporter	SARS PLP yeast	Cruzain noTriton
CC(/C=N/NC(=O)c1ccccc1F)c1ccccc1 (stereo not given)	6%	.	.	-2%	.	10%	-1%	.
Cc1cc(C)n(-c2ccc([N+](=O)[O-])cc2)n1	-1%	3%	2%	3%	2.5%	9%	2%	-4%
COC(=O)COc1ccc(/C=N/NC(=O)CN(c2ccccc2OC)S(=O)(=O)c2ccccc2)cc1	11%	-15%[46.1 µM]	-1%	-9%	.	?	1%	.
O=C(Oc1ccc(Cl)c2cccnc12)c1cccc([N+](=O)[O-])c1	?	24%	-14%	20%	-5.7%	?	-68%	-14%
COc1ccc(-c2nnc(SCC(=O)NC3CCCCC3)n2N)cc1	-9%	3%[46.1 µM]	-12%	.	.	-4%	1%	.
COC(=O)c1cc(NCc2ccccc2F)ccc1N1CCOCC1	-15%	1%	4%	-10%	-0.5%	-21%	-2%	4%
CC1CCN(c2ccc(C(=O)Nc3nnc(C4CC4)s3)cc2[N+](=O)[O-])CC1	13%	?	14%[46.1 µM]	15%	-5.4%	-6%	-1%	-3%
COc1ccc(NC(=O)Cn2nnc(C(=O)NCc3ccccc3)c2N)cc1Cl	-14%	-3%	10%	0%	2.9%	-8%	1%	-21%
Cc1cccc(NC(=O)CSc2nc(C)cc(C)c2C(=O)Nc2ccc(Cl)cc2)c1	.	18%[46.1 µM]	-12%[46.1 µM]	.	-0.8%	-6%	.	-2%
CCN(CC)S(=O)(=O)c1ccc2[nH]c(=O)cc(C(=O)NCc3ccccc3)c2c1	13%	-1%[46.1 µM]	4%[46.1 µM]	-9%	.	5%	10%	.
Cc1ccc(N2C(=O)N(Cc3cc(=O)n4ccccc4n3)c3ccccc3S2(=O)=O)cc1Cl	.	.	-28%[46.1 µM]	.	-2.4%	-25%	.	26%
CCNc1nc(NCC)nc(N/N=C/c2ccc(OC)cc2)n1	23%	.	.	-2%	.	-24%	-1%	.
Cc1ccc(C)c(N2CCN(C(=O)C(C)n3c(C)c4cnn(-c5ccccc5)c(=O)c4c3C)CC2)c1 (stereo not given)	.	19%[46.1 µM]	10%[46.1 µM]	.	-1.8%	0%	.	-4%
COCCCNC(=O)CCn1c(=O)c2ccccc2n(CC(=O)Nc2cc(Cl)ccc2C)c1=O	-2%	14%&14%[46.1 µM]	4%	14%	-1.5%	-22%	2%	?
CCOc1ccc(/C=C/c2c([N+](=O)[O-])c(=O)n(C)c(=O)n2C)cc1	19%	?	?	0%	.	-29%	-1%	.
O=C(c1ccccc1Oc1ccccc1)N1CCN(c2ccc(F)cc2)CC1	-2%	-16%	-17%	-9%	-0.1%	-28%	-14%	3%
CCn1nc(NC(=O)C2CCCO2)c2cc3cccc(C)c3nc21 (stereo not given)	-1%	0%[14.2 µM]	17%	-6%	.	3%	1%	.
Cc1ccc(SCc2[nH]nc3c2C(c2ccc(C)o2)C(C#N)=C(N)O3)cc1 (stereo not given)	0%	?	-4%	-63%	?	?	-30%	9%
CC(=O)Nc1ccc(C(=O)CSc2nnnn2C(C)C)cc1	-5%	20%	-6%	-4%	-2.4%	46%[activator]	-20%	-14%
O=C(NCc1cccnc1)C12CC3CC(CC(C3)C1)C2	2%	?	3%[46.1 µM]	6%	.	-9%	1%	.
Cc1ccccc1Cn1nc(C)c(NC(=O)c2sc3ccccc3c2Cl)c1C	-3%	?	-18%	-54%	-0.9%	32µM*	-6%	-8%
CCCCn1c(N)c(N(Cc2ccccc2OC)C(=O)c2cc(CC)c(C)s2)c(=O)[nH]c1=O	-4%	?	-1%	.	.	-12%	2%	.
CN(C)c1nc(N)nc(CSc2n[nH]c(-c3ccccc3)n2)n1	20%	1%	4%	-2%	5.8%	39%[activator]	1%	0%
O=C1C(Cl)=C(N2CCN(c3ccccc3[N+](=O)[O-])CC2)C(=O)c2ccccc21	-25%	?	?	1%	-5.2%	?	-11%	?
Cc1cc(C)nc(SCc2ccc(C(=O)N/N=C/c3cccc(O)c3O)cc2)n1	?	7.3µM*	?	-7%	-6.2%	24%	3.2µM*	4%
Cc1ccc(C(=O)NCc2ccccc2)cc1Br	-1%	14%	-9%	-19%	-2.1%	38%[activator]	-6%	0%
Cc1cc(F)ccc1NC(=S)NC1CCCC1	4%	.	.	13%	.	29%	0%	.
Cc1ccc(NC(=O)CCn2nc(C)c3c(C)n(-c4ccccc4)nc3c2=O)cc1Cl	.	.	-21%[46.1 µM]	.	1.7%	-24%	.	?
Cc1ccc(S(=O)(=O)NNC(=O)Nc2ccc(Cl)c(Cl)c2)cc1	12%	.	.	-4%	.	-14%	0%	.
O=C(O)c1c(-c2ccc(Cl)cc2)cn2ccccc12	1%	?	29%	.	.	56%[activator]	-1%	.
COc1ccccc1NC(=O)c1cc(S(=O)(=O)N2CCOCC2)ccc1Cl	-15%	3%[46.1 µM]	?	-8%	-1.0%	-23%	.	-8%
COc1cc(CNCc2ccncc2)ccc1OCC(N)=O	19%	9%[46.1 µM]	-7%[46.1 µM]	.	.	-6%	.	.
CC(C)NC(=O)CCSc1nc(-c2ccc3c(c2)OCO3)cc(C(F)(F)F)n1	.	13%[46.1 µM]	?	.	-0.4%	-23%	.	-2%
O=C(CCCn1c(=O)[nH]c2cc(Cl)ccc2c1=O)NCCCN1CCCC1	-5%	11%[46.1 µM]	22%	5%	1.4%	-2%	9%	18%
COc1ccccc1C(c1nnnn1C(C)(C)C)N1CCCCCC1 (stereo not given)	-8%	-21%	8%	-6%	-1.2%	-8%	-1%	7%
CC(=O)Oc1ccc(C(=O)Nn2cnnc2)cc1	-2%	24%	14%	.	.	-11%	.	.
O=C(OCc1nnc(-c2ccccc2)o1)c1ccc(Cl)cc1	-13%	-1%	0%	-51%	.	-17%	-2%	.
Cc1sc2nc(SCc3ccc(C(=O)O)cc3)n(Cc3ccco3)c(=O)c2c1C	?	?	-25%	-11%	.	-4%	-1%	.
Cc1ccc(N2C(=O)C(CC(=O)Nc3ccc(F)cc3)N(Cc3ccc4c(c3)OCO4)C2=O)cc1 (stereo not given)	.	?	-28%[46.1 µM]	.	-2.5%	-15%	.	-9%
COc1ccc(-c2cc(=NC(CC(C)C)C(=O)O)c3cc(C)ccc3o2)cc1 (stereo not given)	-3%	-1%	?	-14%	-8.7%	102%[activator]	2%	-12%
O=C(CSc1nccc(-c2cccs2)n1)Nc1cccc(Cl)c1Cl	-4%	?	12%	-1%	.	-28%	0%	.
CCOc1cccc(/C=C/c2cc(C(=O)O)c3ccccc3n2)c1OC	-10%	.	.	7%	.	-17%	0%	.
O=C(N/N=C/c1cccc(OC(=O)c2ccccc2Cl)c1)c1cccnc1	3%	5%	24%	-22%	.	11%	-8%	.
CCCCn1c(N)c(N(CCC(C)C)C(=O)COC(=O)c2ccco2)c(=O)[nH]c1=O	15%	0%&0%	22%	15%	3.2%	2%	-2%	18%
CC(=O)Nc1ccc2nc(-c3cccnc3)[nH]c2c1	-4%	?	2%	5%	-3.3%	7%	10%	-7%
CCCNC(=O)CN(Cc1ccco1)S(=O)(=O)c1ccc(OCC)cc1	4%	3%	3%	14%	-0.5%	29%	2%	0%
CCc1nn(CC(=O)NCc2ccc(OC)cc2OC)c(=O)c2cc3c(OC)cccc3n12	.	10%[46.1 µM]	.	.	-1.5%	-3%	.	4%
CCOC(=O)C/C(C)=N/NC(=O)c1cccs1	-9%	28%	3%	-6%	1.2%	22%	-1%	0%
Cc1cc(C)nc(/N=C2\NC(=O)CC(C(=O)O)N2c2ccc(Oc3ccccc3)cc2)n1 (stereo not given)	11%	5%[46.1 µM]	?	4%	-1.1%	-10%	0%	?
COc1cccc(NC(=O)C(=O)NCc2ccncc2)c1	3%	?	12%[46.1 µM]	1%	.	46%[activator]	1%	.
Cc1cc(C)cc(N(C)S(=O)(=O)c2nnc(NC(=O)COc3ccc(Cl)cc3)s2)c1	.	.	1%[46.1 µM]	.	-2.9%	-17%	.	-30%
COc1ccc(N2CCN(c3oc(COc4ccc(Cl)cc4Cl)nc3C#N)CC2)cc1	3%	-1%	0%	?	3.2%	0%	-18%	?
COc1ccc(Cl)cc1NC(=O)CN(C)C(=O)Cc1n[nH]c(=O)c2ccccc12	19%	?	?	.	.	-11%	-3%	.
CCOC(=O)CNC(=O)CSc1nc2ncc(Br)cc2[nH]1	11%	1%	12%	4%	-3.0%	0%	6%	1%
CC1CCN(c2nnc(N)s2)CC1	-12%	28%	1%	-10%	4.3%	21%	3%	10%
O=[N+]([O-])c1ccc(-c2cnc[nH]2)cc1	3%	6%	17%	-7%	.	42%[activator]	0%	.
COC(=O)CCC(=O)NN1C(=O)c2ccccc2C1=O	6%	.	.	1%	.	-24%	0%	.

# Whole records, looked up by structure:
# Shown for CCOC(=O)CNC(=O)CSc1nc2ncc(Br)cc2[nH]1 → RE007 growth inh: 11%; Marburg entry inh: 1%; Lassa entry inh: 12%; NS1 function inh: 4%; Cruzain Triton: -3.0%; StopGo reporter: 0%; SARS PLP yeast: 6%; Cruzain noTriton: 1%
# Shown for CC1CCN(c2nnc(N)s2)CC1 → RE007 growth inh: -12%; Marburg entry inh: 28%; Lassa entry inh: 1%; NS1 function inh: -10%; Cruzain Triton: 4.3%; StopGo reporter: 21%; SARS PLP yeast: 3%; Cruzain noTriton: 10%
